FGF22 binding – binders of human FGF22 protein, primary screen, FGF22 synaptogenesis inhibitor project, biophysical, thermal shift, single point; Fibroblast growth factor 22 (Homo sapiens), Q9HCT0; recombinant FGF22 thermal shift, SYPRO orange fluorescence; percent of sucrose octasulfate shift, DMSO zero; calls only at 9.99 µM; 1.5% of 340,000 active; AID 651658, 2012;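 active = melting point raised past a set limit in the mean and every replicate; inconclusive = no clear call; three in four hits are not shown here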
Target sequence (Q9HCT0 whole entry, looked up): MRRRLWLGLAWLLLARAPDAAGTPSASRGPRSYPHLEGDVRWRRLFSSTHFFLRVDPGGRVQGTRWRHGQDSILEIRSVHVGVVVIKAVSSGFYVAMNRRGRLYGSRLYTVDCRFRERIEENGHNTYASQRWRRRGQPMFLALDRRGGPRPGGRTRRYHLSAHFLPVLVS
Vif A3G – inhibitors of Vif binding to APOBEC3G peptide, primary screen, biochemical, TR-FRET, GST-Vif 1-94, biotin-A3G peptide, dose response retest (AID 1117319) | 0.57% of 260,000 active | TR-FRET GST-Vif / biotin-A3G peptide binding; higher % means a stronger effect; test concentration not given here; strong numbers were not always called active | Virion infectivity factor (Human immunodeficiency virus type 1 group M subtype B (isolate … | one-dose inhibition, %; IC50 in µM for titrated hits;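 active = above the screen mean plus three standard deviations and confirmed in dose response; inconclusive = results disagree or hit not tested in dose response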;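 also: Vif residues 1-94 fused to GST binding biotinylated APOBEC3G peptide 110-148; 0% = full assay without inhibitor and 100% = GST in place of GST-Vif; retest series ran down from 100 µM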
MLL AF4-AF9 inh – inhibitors of AF4 peptide binding to AF9, primary screen, biochemical, AlphaScreen, biotin-AF4 peptide, FLAG-AF9, single point; inhibition, % at 10 µM; 0.47% of 350,000 active; Protein AF-9 (Homo sapiens), P42568;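 active = every replicate reaching a set inhibition limit, whatever the replicate mean, cut at about 25% in these data; inconclusive = mean inhibition reaches that limit but some replicates miss it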;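 also: 0% = plate neutral control median and 100% = total signal loss; the record names both 10 and 1 µM as test concentration; the first replicate is given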
RanGTP-Impb inh – inhibitors of RanGTP-importin-beta interaction, primary screen, biochemical, FRET, CFP-Ran, YFP-importin-beta, homogeneous. AID 2216, 2009. cell-free CFP-Ran/YFP-importin-beta FRET ratio. inhibition, % (test concentration not listed). 1.1% of 300,000 active;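 active = most replicates above 15%; inconclusive = exactly half above 15%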;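 also: 0% = DMSO wells and 100% = Ran loaded with GDP instead of GTP; wells of about 40 µL received 100 nL stock; the first replicate is given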
Ecoli growth – E. coli growth inhibition, primary screen, OD600; Escherichia coli growth, 23 h; stronger effect = lower value; 0.21% of 330,000 active; OD600 absorbance (no concentration beside the values); AID 1053175, 2014;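 active = OD600 absorbance below the run mean of sample wells minus 3.6 SD, in any replicate, cut at about 0.56 in these data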;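 also: stock transfer was 300 nL into about 60 µL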
UCH37 inh – inhibitors of human UCH37 deubiquitinase, primary screen, biochemical, Ub-AMC cleavage, fluorescence. Ubiquitin carboxyl-terminal hydrolase isozyme L5 (Homo sapiens), Q9Y5K5. purified proteasome/UCH37. inhibition, % (no concentration beside the values). 0.33% of 330,000 active;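 active = mean of two replicates above 20%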;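 also: 0% = compound-free wells with enzyme and 100% = wells lacking proteasome; stock transfer was 100 nL into about 20 µL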
Target sequence (Q9Y5K5 whole entry, looked up): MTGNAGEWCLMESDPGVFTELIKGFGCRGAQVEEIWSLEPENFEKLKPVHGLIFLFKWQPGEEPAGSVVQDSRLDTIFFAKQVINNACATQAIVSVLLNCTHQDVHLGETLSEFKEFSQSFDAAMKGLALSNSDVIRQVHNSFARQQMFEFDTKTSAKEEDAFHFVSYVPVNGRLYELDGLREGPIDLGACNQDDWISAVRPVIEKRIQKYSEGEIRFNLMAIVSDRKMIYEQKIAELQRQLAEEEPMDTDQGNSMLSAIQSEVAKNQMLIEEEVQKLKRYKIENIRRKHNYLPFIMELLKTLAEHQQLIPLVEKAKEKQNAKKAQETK
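Reagent: Ub-AMC substrate; assay system: Proteasome-associated human UCH37 deubiquitinase; controls: no-proteasome and no-compound wells; read-out: % inhibition of Ub-AMC cleavage fluorescence; timing: 30 min preincubation with enzyme, 25 min cleavage at room temperature; signal: AMC fluorescence from Ub-AMC cleavage, excitation 355 nm, emission 460 nm; buffer or medium: Tris-HCl pH 7.4 plus ovalbumin, ATP-MgCl2, DTT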
HNF4A DNA FP – change in binding of human HNF4A to DNA, primary screen, biochemical, fluorescence polarization, FITC-DNA. 0.3% of 360,000 active. Hepatocyte nuclear factor 4-alpha (Homo sapiens), P41235. activity change, % at 10 µM. 1 h. AID 1224865, 2016; in the data active = activity change above about 30%, passing the limit was not always enough;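 also: controls were the assay level and a saturating level of protein; the project sought stronger binding though the title names inhibitors; some compounds called inactive have numbers as strong as hits; positive values seem to mean higher polarization but the record does not say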
Target sequence (P41235 whole entry, looked up): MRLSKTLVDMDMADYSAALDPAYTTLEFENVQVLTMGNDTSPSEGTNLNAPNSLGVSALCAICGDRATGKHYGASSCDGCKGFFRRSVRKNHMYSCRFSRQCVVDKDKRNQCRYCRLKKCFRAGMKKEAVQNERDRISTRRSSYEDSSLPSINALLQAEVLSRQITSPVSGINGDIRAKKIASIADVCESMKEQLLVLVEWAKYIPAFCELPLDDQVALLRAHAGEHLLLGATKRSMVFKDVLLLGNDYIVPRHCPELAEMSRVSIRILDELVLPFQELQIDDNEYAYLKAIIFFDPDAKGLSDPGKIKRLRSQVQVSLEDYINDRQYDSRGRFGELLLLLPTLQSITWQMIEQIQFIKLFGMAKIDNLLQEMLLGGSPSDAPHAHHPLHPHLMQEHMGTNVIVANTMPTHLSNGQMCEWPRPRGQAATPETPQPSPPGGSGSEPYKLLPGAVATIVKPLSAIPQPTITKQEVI
The depositor's hits bear a star.

For Cc1c(CN2CCC(CO)(CCOc3ccccc3)CC2)[nH]c2c(Cl)cccc12 the results were FGF22 binding inactive, Vif A3G 21.5%, MLL AF4-AF9 inh 10.9, RanGTP-Impb inh inconclusive, Ecoli growth 0.648, UCH37 inh 6.9 and HNF4A DNA FP -1.3.
NC(=S)NC(c1ccccc1)c1ccncc1 (centres undefined) was read as FGF22 binding inactive, MLL AF4-AF9 inh 4.6, RanGTP-Impb inh 5.3, Ecoli growth 0.69, UCH37 inh -0.5 and HNF4A DNA FP -1.6.
For CC(=O)Nc1cccc(OC(=O)c2ccoc2C)c1 the results were Vif A3G 12.6%, RanGTP-Impb inh 1.8, Ecoli growth 0.651, UCH37 inh 3.4 and HNF4A DNA FP -0.2.
For Cc1ccc(-n2c(C)cc(/C=N/NC(=O)c3ccncc3)c2C)cc1 the results were Vif A3G 18.2%, RanGTP-Impb inh -0.8 and HNF4A DNA FP -3.8.
For CNc1nc(NCCOc2ccccc2Cl)c2sccc2n1 the results were FGF22 binding inactive, MLL AF4-AF9 inh 6.4 and HNF4A DNA FP 2.2.
Screening Cc1ccc(/C=C2\SC(=S)N(CCC(=O)NNC(=O)c3ccc(O)cc3)C2=O)cc1 returned FGF22 binding inactive, Vif A3G -1.6%, MLL AF4-AF9 inh -0.1, RanGTP-Impb inh -1.2, Ecoli growth 0.697, UCH37 inh 3.9 and HNF4A DNA FP 0.6.
`COc1cc(CNn2nnnc2N)ccc1OCc1c(Cl)cccc1Cl` gave Vif A3G -1.6%, RanGTP-Impb inh -0.2, Ecoli growth 0.694, UCH37 inh 1.5 and HNF4A DNA FP 2.2.
For CCOC(=O)Nc1nc(-c2ccccc2)c(C(=O)c2ccc(Cl)cc2)s1 the results were Vif A3G -17.2%, RanGTP-Impb inh 9.6, Ecoli growth 0.733, UCH37 inh 4.6 and HNF4A DNA FP 2.9.
`CN1CCN(C(=O)Nc2ccccc2CC[N+](=O)[O-])CC1` gave FGF22 binding inactive, Vif A3G 9.7%, MLL AF4-AF9 inh 0.3, RanGTP-Impb inh -2.0, Ecoli growth 0.667, UCH37 inh 1.1 and HNF4A DNA FP -2.4.
`O=c1c2ccccc2nnn1CSc1nnc(C2COc3ccccc3O2)n1-c1ccccc1` (centres undefined) gave Vif A3G -0.8%, RanGTP-Impb inh -1.6, Ecoli growth 0.68, UCH37 inh 3.8 and HNF4A DNA FP 2.0.
Screening O=C(NCc1ccccc1)C1C(c2ccc3c(c2)OCO3)=Nc2ccccc2N1C(=O)c1ccco1 (centres undefined) returned FGF22 binding inactive, MLL AF4-AF9 inh 1.3 and HNF4A DNA FP 2.0.
O=C(Cc1ccc(F)cc1)N(c1ccc(F)cc1)C1C=CS(=O)(=O)C1 (centres undefined) was read as Vif A3G -1.6%, RanGTP-Impb inh -3.2, Ecoli growth 0.662, UCH37 inh 3.7 and HNF4A DNA FP 4.1.
For COc1ccc(N(CC(=O)NC2CCCCC2)S(=O)(=O)c2cccs2)cc1 the results were FGF22 binding inactive, MLL AF4-AF9 inh -17.1, Ecoli growth 0.644, UCH37 inh 1.5 and HNF4A DNA FP 5.6.
Screening COC(=O)c1ccc(C(=O)OC)c(NC(=O)CSCc2ccc(Br)cc2)c1 returned FGF22 binding inactive, Vif A3G 0.4%, MLL AF4-AF9 inh 9.4, RanGTP-Impb inh 0.3, Ecoli growth 0.722, UCH37 inh -12.6 and HNF4A DNA FP -1.4.
For COc1cccc(CNC(=O)C(=O)NCCC2CCCCN2S(=O)(=O)c2ccc(C)cc2)c1 (centres undefined) the results were FGF22 binding inactive, MLL AF4-AF9 inh -1.4, RanGTP-Impb inh 5.7, Ecoli growth 0.71, UCH37 inh 0.8 and HNF4A DNA FP -3.0.
COc1ccc(C(O)(CCc2ccccc2)CCN2CCCCC2)cc1 (centres undefined) was read as FGF22 binding inactive, Vif A3G -3.2%, MLL AF4-AF9 inh -0.1, RanGTP-Impb inh 0.8, Ecoli growth 0.708, UCH37 inh 1.6 and HNF4A DNA FP -3.1.
Nc1cc(=O)[nH]c(SCC(=O)Nc2ccc(Br)cc2)n1 was read as Vif A3G 7.0%, RanGTP-Impb inh -1.6, Ecoli growth 0.744, UCH37 inh 1.2 and HNF4A DNA FP 0.9.
Screening CCOc1ccc(NC(=O)COC(=O)CC2CCCCC2)cc1 returned FGF22 binding inactive, Vif A3G -2.2%, MLL AF4-AF9 inh -1.2, Ecoli growth 0.69, UCH37 inh 1.8 and HNF4A DNA FP -3.1.
Screening CC(C)=C1C(=O)NN(c2ccc(F)c(Cl)c2)C1=O returned FGF22 binding inactive, Vif A3G 12.3%, MLL AF4-AF9 inh -88.9, RanGTP-Impb inh 5.2, Ecoli growth 0.713, UCH37 inh 0.7 and HNF4A DNA FP 1.0.
For CC1CCCCN1C(=S)NC(=O)c1ccccc1 (centres undefined) the results were FGF22 binding inactive, Vif A3G -9.6%, MLL AF4-AF9 inh -0.8, Ecoli growth 0.683, UCH37 inh 2.2 and HNF4A DNA FP 1.4.

Not a retest: two of the compounds above.
For Cc1c(CN2CCC(CO)(CCOc3ccccc3)CC2)[nH]c2c(Cl)cccc12 the results were FGF22 binding inactive, Vif A3G 21.5%, MLL AF4-AF9 inh 10.9, RanGTP-Impb inh inconclusive, Ecoli growth 0.648, UCH37 inh 6.9 and HNF4A DNA FP -1.3.
NC(=S)NC(c1ccccc1)c1ccncc1 (centres undefined) was read as FGF22 binding inactive, MLL AF4-AF9 inh 4.6, RanGTP-Impb inh 5.3, Ecoli growth 0.69, UCH37 inh -0.5 and HNF4A DNA FP -1.6.

Continued.
For COc1ccc(N2C(=O)C(F)(F)C2c2ccccc2F)cc1 (centres undefined) the results were Vif A3G -6.6%, MLL AF4-AF9 inh -2.6, RanGTP-Impb inh -6.1, Ecoli growth 0.716, UCH37 inh 5.8 and HNF4A DNA FP -2.3.
CCOC(=O)CSc1c(-c2ccc(Cl)cc2)[nH]c2ccccc12 was read as FGF22 binding inactive, Vif A3G -9.2%, MLL AF4-AF9 inh 1.0, RanGTP-Impb inh -0.6, Ecoli growth 0.69, UCH37 inh 0.8 and HNF4A DNA FP 2.3.
O=C(O)CCNC(=O)OCC1c2ccccc2-c2ccccc21 was read as FGF22 binding inactive, Vif A3G -4.2%, MLL AF4-AF9 inh -2.7, RanGTP-Impb inh -1.3, Ecoli growth 0.646, UCH37 inh 0.2 and HNF4A DNA FP -3.9.
COc1ccccc1/C=C/C=N/NC(=O)c1cccs1 was read as FGF22 binding inactive, Vif A3G 1.4%, MLL AF4-AF9 inh 8.8, RanGTP-Impb inh inconclusive and HNF4A DNA FP -2.4.
For COc1cccc(-n2cnnc2SCC(=O)NC2CC2)c1 the results were FGF22 binding inactive, Vif A3G -1.8%, MLL AF4-AF9 inh -8.6, Ecoli growth 0.71, UCH37 inh -2.5 and HNF4A DNA FP 1.2.
Screening CC(=O)c1cccc(NC(=O)CSCc2ccccc2)c1 returned Vif A3G 3.0%, RanGTP-Impb inh 1.9, Ecoli growth 0.677, UCH37 inh 1.3 and HNF4A DNA FP 1.0.
Screening COc1ccc2c(c1)OC[C@H]1[C@H]2N2C(=O)c3cc(F)ccc3NC(=O)[C@@]2(C)[C@H]1c1ccccc1 returned FGF22 binding inactive, MLL AF4-AF9 inh 6.8 and HNF4A DNA FP 3.7.
Cc1ccc2nc(-c3cc(N)cc(N)c3)oc2c1 was read as Vif A3G 9.6%, RanGTP-Impb inh -4.5, Ecoli growth 0.739, UCH37 inh -11.6 and HNF4A DNA FP -0.2.
CN(Cc1c(C(=O)N/N=C/c2cccc(Cl)c2)nnn1-c1nonc1N)c1ccccc1 was read as FGF22 binding inactive, MLL AF4-AF9 inh -15.2, RanGTP-Impb inh 0.1 and HNF4A DNA FP -3.1.
For CC(C)C1C(C#N)=C(N)Oc2n[nH]c(-c3ccccc3)c21 (centres undefined) the results were Vif A3G -3.5%, RanGTP-Impb inh 1.0, Ecoli growth 0.751, UCH37 inh 5.7 and HNF4A DNA FP -0.1.
Screening c1ccc(Cc2nn[nH]n2)cc1 returned Vif A3G 26.2%, RanGTP-Impb inh -2.3, Ecoli growth 0.661, UCH37 inh 4.2 and HNF4A DNA FP 0.9.
For CCN(CC)CCn1c(SCC(=O)NCCC2=CCCCC2)nc2c(sc3ccccc32)c1=O the results were FGF22 binding inactive, Vif A3G 1.3%, MLL AF4-AF9 inh 0.9, RanGTP-Impb inh -5.2, Ecoli growth 0.717, UCH37 inh -16.9 and HNF4A DNA FP 1.5.
COc1ccc(NC(=O)C(Sc2nnc3ccccn23)c2ccccc2)cc1Cl (centres undefined) was read as FGF22 binding inactive, MLL AF4-AF9 inh 3.3, RanGTP-Impb inh -1.6, Ecoli growth 0.668, UCH37 inh 1.7 and HNF4A DNA FP 1.4.
For COC(=O)C(C)NC(=O)C12CC3CC(C1)CC(c1ccc(C)cc1)(C3)C2 (centres undefined) the results were FGF22 binding inactive, Vif A3G -4.6%, MLL AF4-AF9 inh -16.1, RanGTP-Impb inh -2.1, Ecoli growth 0.668, UCH37 inh 3.8 and HNF4A DNA FP 2.4.
COc1ccc(-c2c(NC(C)=O)n(C)c3ccccc3c2=O)cc1 was read as Vif A3G -1.6%, RanGTP-Impb inh -0.4, Ecoli growth 0.63, UCH37 inh -96.5 and HNF4A DNA FP 1.8.
Screening NS(=O)(=O)c1cccc(NC(=O)COC(=O)Cc2n[nH]c(=O)c3ccccc23)c1 returned FGF22 binding inactive, Vif A3G -9.2%, MLL AF4-AF9 inh 0.2, Ecoli growth 0.704, UCH37 inh -0.1 and HNF4A DNA FP -0.7.
Screening CCOc1cc(C=O)ccc1OCCCN1C(=O)NC(C)(C)C1=O returned Vif A3G -0.1%, RanGTP-Impb inh -2.0, Ecoli growth 0.711, UCH37 inh 0.1 and HNF4A DNA FP -0.6.
Screening CCCN(CC(=O)Nc1ccccc1OC)C(=O)CCC(=O)c1ccc(Cl)s1 returned FGF22 binding inactive, Vif A3G 0.9%, MLL AF4-AF9 inh 3.5, Ecoli growth 0.686, UCH37 inh -3.2 and HNF4A DNA FP -0.9.
Screening O=C(NCCCl)Nc1cccnc1Cl returned Vif A3G -1.9%, MLL AF4-AF9 inh -1.2, RanGTP-Impb inh -0.6, Ecoli growth 0.667, UCH37 inh 1.8 and HNF4A DNA FP 2.4.
`Cc1ccc(/C=C/c2nc3ccccc3[nH]2)o1` gave FGF22 binding inactive, Vif A3G 21.2%, MLL AF4-AF9 inh -0.8, RanGTP-Impb inh -21.8, Ecoli growth 0.645, UCH37 inh -34.7 and HNF4A DNA FP -1.8.
Screening Cc1cccc(C)c1NC(=O)CN(C)C(=O)CSC(=S)N1CCCC1 returned FGF22 binding inactive, Vif A3G 6.3%, MLL AF4-AF9 inh -5.2, RanGTP-Impb inh 3.0, Ecoli growth 0.689, UCH37 inh -1.3 and HNF4A DNA FP -2.5.
Screening C=C(C)CSc1nc2ccccc2[nH]1 returned FGF22 binding inactive, Vif A3G -5.3%, MLL AF4-AF9 inh -4.6, RanGTP-Impb inh -3.4, Ecoli growth 0.62, UCH37 inh 0.7 and HNF4A DNA FP 2.9.
For CC1(Oc2ccc(F)cc2)CCN(Cc2ccccc2OC(F)F)C1 (centres undefined) the results were FGF22 binding inactive, MLL AF4-AF9 inh 0.9 and HNF4A DNA FP -0.7.

Only part of the results is shown; the hit share may differ from the screen's.
